Source: PubChem BioAssay (several laboratories)
eIF4H inh: inhibitors of RNA binding by human eIF4H | Q15056 | eIF4H fluorescence polarization binding assay | inhibition, % at 35 µM | actives 0.94% (n = 290,000) | AID 2012;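 active = 50% or more with normal probe brightness, or confirmed in later tests; inconclusive = above 50% with abnormal brightness, or retests that disagree; inactive = below 50% or failed in later tests; about a fifth of its hits are not listed in these tables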;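 also: calls also rest on retests at 20 µM and on dose response follow-up; 0% = protein and probe with vehicle and 100% = probe without protein; strong numbers were not always called active; many hits fall short of the cut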
MT1-MMP act inh: blocks activation of human MT1-MMP; HT1080 RFP-PRO-GFP cells, GFP/RFP ratio fluorescence, overnight; percent of plate control window, DMSO zero; GFP/RFP ratio change, % at 20 µM; actives 0.061% (n = 360,000); P50281;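 active = GFP/RFP ratio change of at least 30% with cell ATP level not reduced by more than half and red fluorescence within 50% of control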; also: strong numbers were not always called active
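system = RFP-PRO-GFP reporter HT1080 cells | dosing = 20 µM single dose, 1% DMSO | timing = overnight cell settling, then overnight compound exposure, 37 °C, 5% CO2 | read-out basis = GFP/RFP fluorescence ratio | controls = DMSO and RFP-L50D-GFP cell wells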
Rce1 inhib: inhibitors of yeast Ras-converting enzyme; yeast membranes, quenched prenylated peptide cleavage fluorescence; calls only; actives 0.27% (n = 290,000);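 active = fall in fluorescence gain of 50% or more versus controls, with final raw signal at or below 3038400; inconclusive = same 50% fall but final raw signal above 3038400; inactive = fall in fluorescence gain under 50%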;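 also: plate controls were neutral control wells for no effect and wells lacking membranes for full effect; tested at 10 µM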
Yeast UUG start: yeast start codon fidelity modulation; activity score, % at 18.7 µM; actives 0.13% (n = 350,000); S. cerevisiae UUG-firefly luciferase reporter, luminescence/redox ratio; AID 602363;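 active = replicate mean at a twofold rise or more, about +100% in these data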;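 also: firefly luciferase made from a UUG start codon reports start codon fidelity; reporter light over untreated wells divided by growth signal over untreated wells; some hits fall short of that in this replicate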
CSC inhib: cancer stem cell inhibition | cancer stem cell-like cells viability, luminescence | inhibition, % at 7.5 µM | actives 1.1% (n = 300,000) | AID 2717;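 active = mean at 75% or more and at least half the replicates too; inconclusive = mean and replicates disagree; tested in HMLE shEcad cells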;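 also: 0% = median of negative and 100% = median of positive control wells; the first replicate is given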
PABP polyA inh: blocks human PABP binding to poly(A) RNA; actives 1% (n = 290,000); inhibition, % at 35 µM; P11940; fluorescence polarization;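 active = 50% or more with normal probe brightness, or confirmed in later tests; inconclusive = above 50% with abnormal brightness, or retests that disagree; inactive = below 50% or failed in later tests; about a fifth of its hits are not listed in these tables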;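 also: calls also rest on retests at 20 µM and on dose response follow-up; controls were probe without protein and protein plus probe with vehicle; some compounds called inactive have numbers as strong as hits; many hits fall short of the cut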
Target sequence (P11940 whole entry, looked up): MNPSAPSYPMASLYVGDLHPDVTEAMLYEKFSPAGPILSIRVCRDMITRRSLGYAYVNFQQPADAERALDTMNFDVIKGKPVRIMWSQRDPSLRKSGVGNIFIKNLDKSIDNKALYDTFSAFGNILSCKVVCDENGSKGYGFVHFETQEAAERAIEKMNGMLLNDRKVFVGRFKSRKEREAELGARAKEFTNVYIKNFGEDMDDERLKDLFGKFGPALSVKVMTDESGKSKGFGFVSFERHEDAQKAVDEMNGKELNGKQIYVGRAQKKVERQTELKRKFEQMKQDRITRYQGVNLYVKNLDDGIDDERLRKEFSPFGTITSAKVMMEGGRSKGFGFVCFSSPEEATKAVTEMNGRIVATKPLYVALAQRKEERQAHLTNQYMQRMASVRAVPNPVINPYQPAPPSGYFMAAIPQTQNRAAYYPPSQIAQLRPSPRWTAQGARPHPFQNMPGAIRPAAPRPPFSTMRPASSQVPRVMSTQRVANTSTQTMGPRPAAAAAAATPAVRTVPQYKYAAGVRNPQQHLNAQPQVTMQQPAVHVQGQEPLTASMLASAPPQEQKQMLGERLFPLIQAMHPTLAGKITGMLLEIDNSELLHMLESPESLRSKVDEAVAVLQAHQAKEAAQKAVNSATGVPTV
Env fusion inh: inhibitors of HIV Env-mediated cell fusion | actives 1.1% (n = 360,000) | HeLa-JRFL Env/CEM21 cell fusion, luciferase | inhibition, % at 12.3 µM | AID 651610;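 active = mean replicate inhibition score of at least 50 and every replicate individually at or above 50; inconclusive = only one of the two criteria met; inactive = mean below 50 and not all replicates reaching 50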;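 also: 0% = plate neutral controls and 100% = maraviroc near 300 nM; one replicate is shown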
eIF4H inh retest: further read-out of eIF4H inh, marked with its call; inhibition, %; compound at 20 µM; confirmation average;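 mean of two retest wells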
PABP polyA inh retest: further read-out of PABP polyA inh, marked with its call; inhibition, %; compound at 20 µM; confirmation repeats;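 mean of two retest wells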
MT1-MMP act inh RFP: second read-out of MT1-MMP act inh, no call of its own (marks repeat the call); RFP signal change, %; measured here: RFP expression control read;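 0 = vehicle wells; hits needed this value within 50% of zero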
Active calls of the source: *; i = inactive; ? = inconclusive; / = not tested or not shown; & = joins results of further samples; [ ] = another dose, or the depositor's remark.

SMILES	eIF4H inh	MT1-MMP act inh	MT1-MMP act inh RFP	Rce1 inhib	Yeast UUG start	CSC inhib	PABP polyA inh	Env fusion inh	others
Brc1cccc(OCCCCN2CCCCC2)c1	-13	1	3	i	/	27	-11	-47
Cc1cc(/C=N/O)c(C)n1-c1ccc(Br)cc1	7	-5	1	i	1	-5	7	6
CCN(CC)S(=O)(=O)c1ccc(Cl)c(NC(=O)COC(=O)c2cc(-c3ccccc3Cl)nc3ccccc23)c1	-8	3	-1	i	/	/	9	-7
CSc1nc2c([nH]1)c(=S)n(C)c(=O)n2C	/	9	7	/	-14	/	/	-52
O=C(O)CCC1(CCC(=O)O)CCCC(CCC(=O)O)(CCC(=O)O)C1=O	/	2	1	/	2	/	/	-5
CCNc1nc(NCC)n2c(SCC(=O)N(CC)C3CCCCC3)nnc2n1	0	/	/	i	/	/	0	-11
C#CCOCCOCCOCCNc1nc(N2CCN(C(=O)C([C@@H](C)O)n3cc([C@@H](N)CCCCN)nn3)CC2)nc(N2CCN(C(=O)[C@H](CCC(=O)O)n3cc([C@@H](N)CCCCN)nn3)CC2)n1 (some centres undefined)	/	3	2	/	0	-10	/	-8
COCCn1c(=O)[nH]c(=O)c2c(C(F)(F)F)cc(-c3cccs3)nc21	0	12	10	i	/	-8	2	-22
CCn1c(CCNC(=O)c2ccc(Cl)cc2Cl)n[nH]c1=S	-12	5	0	i	-25	10	-3	-42
CC(C)C(=O)Nc1cccc2nsnc12	7	-9	1	i	-9	2	1	/
O=C(CSc1ccccc1C(=O)NCc1ccccc1)NC1CCCCCCC1	-9	-3	-4	i	-14	-5	-2	27
C[C@H](NC(=O)c1nc[nH]c1C(=O)N[C@@H](CCCCNC(=O)OC(C)(C)C)C(=O)OC(C)(C)C)c1ccccc1	4	-6	-11	i	-11	-5	1	21
O=C(/C=C/c1ccc(F)cc1)NC(=S)Nc1ccccc1	-7	-4	-3	i	-3	3	-3	-43
CC1(C(=O)Nc2ccccc2)Cc2c(-c3ccc4c(c3)OCO4)ccnc2O1 (centres undefined)	/	0	5	/	-23	/	/	32
COc1ccc(C(=O)N2CCN(c3ncccn3)CC2)cc1[N+](=O)[O-]	2	/	/	i	-6	-7	-3	-55
COc1cc(C2=NOC(C(=O)Nc3cc(C)on3)C2)cc(OC)c1OC (centres undefined)	-12	11	1	i	-4	-13	-6	10
COc1cc2ccccc2cc1C(=O)Nc1ccc(Cl)cn1	-4	-2	1	i	-3	-9	4	-16
O=C(COc1ccccc1[N+](=O)[O-])NCC1(N2CCCCC2)CCCCC1	/	4	4	/	-2	-11	/	5
CC(C)C(=O)NNC(=O)c1cc2sccc2s1	-2	-3	-1	i	/	-1	7	12
COc1ccccc1C/C(N)=N/OC(=O)c1ccco1	-7	1	-3	i	/	1	-9	-9
COCCN1C(=O)/C(=C/c2ccc(OCc3ccc(C(=O)O)cc3)c(OC)c2)SC1=Nc1ccccc1	41	-7	-13	i	1	19	-4	20
COc1ccc(OCC(=O)N2c3ccc(C)cc3C3CN(C)CCC32)cc1 (centres undefined)	-8	-1	4	i	1	-11	-2	22
CCOC(=O)c1c(C)[nH]c(C(=O)Cn2c(=O)c3c(ncn3CC)n(Cc3ccccc3)c2=O)c1C	-7	-2	-2	i	-12	-7	-8	/
COCc1nc2ccccc2n1CCc1ccccc1	28	16	1	i	8	-9	-8	8
Nn1c(SCC(=O)Nc2nc3ccccc3s2)nncc1=O	1	1	0	i	/	-10	-9	/

Gathered by group: the compounds so far with a Cl atom
SMILES	eIF4H inh	MT1-MMP act inh	MT1-MMP act inh RFP	Rce1 inhib	Yeast UUG start	CSC inhib	PABP polyA inh	Env fusion inh	others
CCN(CC)S(=O)(=O)c1ccc(Cl)c(NC(=O)COC(=O)c2cc(-c3ccccc3Cl)nc3ccccc23)c1	-8	3	-1	i	/	/	9	-7
CCn1c(CCNC(=O)c2ccc(Cl)cc2Cl)n[nH]c1=S	-12	5	0	i	-25	10	-3	-42
COc1cc2ccccc2cc1C(=O)Nc1ccc(Cl)cn1	-4	-2	1	i	-3	-9	4	-16

New compounds follow:
SMILES	eIF4H inh	MT1-MMP act inh	MT1-MMP act inh RFP	Rce1 inhib	Yeast UUG start	CSC inhib	PABP polyA inh	Env fusion inh	others
NCC1CC2c3ccccc3C1c1ccccc12 (centres undefined)	4	-2	-1	i	-11	-7	-2	24
Cc1ccc2nc(SCC(=O)NC3CCCC3)[nH]c2c1	-3	-2	-3	i	-18	4	2	6
CC1CCN(C2=NN3C(=N)/C(=C\c4ccc(OC(=O)c5ccco5)cc4)C(=O)N=C3S2)CC1	11	4	6	i	-2	?	-1	6
O=c1c2sccc2[nH]c(=S)n1Cc1ccccc1	9	1	0	i	/	-10	2	14
COC(=O)Nc1ccc([N+](=O)[O-])cc1OC	4	1	8	i	/	-8	4	9
COC(=O)Cn1c(=NC(=O)C2CC2)sc2c(C)cc(C)cc21	/	2	-4	i	-16	-3	/	7
CC(C)NC(=O)C1CCN(C2CCN(C(=O)c3cc4c(s3)CCCCC4)CC2)CC1	1	0	3	i	/	12	-5	-3
C=CCC(Nc1ccco1)c1ccccc1 (centres undefined)	5	-1	3	i	-12	0	24	/
COc1ccccc1/C=C(\C)C(=O)c1c(C)cc(C)[nH]c1=O	20	-2	3	i	2	-4	5	-8
CCOC(=O)N1CCC(N(C(=O)Nc2ccc(Cl)c(Cl)c2)C(C)CC)CC1 (centres undefined)	91	3	8	i	-17	15	-4	/	eIF4H inh retest=1;PABP polyA inh retest=8
Cc1ccc(C2=NN(S(C)(=O)=O)C(c3cccs3)C2)cc1 (centres undefined)	-1	/	/	i	-7	-6	8	/
O=C(O)Cn1cc(F)c(=O)[nH]c1=O	/	3	6	i	17	-2	/	/
CC(C)C[C@@H](CN(C)N=O)N(C[C@H](Cc1ccccc1)N(CCc1ccccc1)N=O)N=O	-6	-7	-14	i	-12	-13	1	94*
CCn1c(CCNC(=O)c2ccc(OC)c(OC)c2)nc2ccccc21	4	4	7	i	-7	-10	-2	-57
O=C(CSc1nnc(Nc2ccccc2F)s1)NC1CCS(=O)(=O)C1 (centres undefined)	/	-6	-8	/	-9	-21	/	-1
CSc1ccccc1NC(=O)C(C)N(C)CC(=O)N1CCN(Cc2ccccc2)CC1 (centres undefined)	/	1	0	/	1	/	/	-17
CC(OC(=O)c1ccc(Cl)cc1)C(=O)NCC1CCCCC1 (centres undefined)	/	5	4	/	-14	/	/	6
COc1nnc(-c2ccc(N3CCOCC3)c(NC(C)=O)c2)c2ccccc12	-4	2	3	i	9	-8	-20	-38
CC(=O)Nc1ccc(NC(=O)CSc2ncc(C(=O)Nc3ccccc3)c(=O)n2C)cc1	/	4	1	i	-12	?	/	6
CC1CCN(S(=O)(=O)c2cccc(C(=O)Nc3nccs3)c2)CC1	4	0	-6	i	-3	8	-4	/
Cc1ccc(OC(=O)c2cccc(S(=O)(=O)N(C)C)c2)c(-n2nc3ccccc3n2)c1	-11	23	7	i	-1	9	-12	/
CCOc1ccc(CN(C(=O)c2cccs2)C2CCS(=O)(=O)C2)cc1 (centres undefined)	2	-1	3	i	5	-6	13	10
CC(=O)NNc1cccc(Cl)n1	1	2	3	i	-2	?	-5	/
O=C(/C=C/c1ccccc1)N/C(=C\c1ccco1)C(=O)NCCO	-2	4	5	i	-3	/	4	-37
COc1ccc(S(=O)(=O)N(C)CC(=O)N2CCC(C)CC2)cc1Cl	0	2	3	i	-11	-16	-2	/

Gathered by group: those above containing a thiophene ring, fused or not (six)
SMILES	eIF4H inh	MT1-MMP act inh	MT1-MMP act inh RFP	Rce1 inhib	Yeast UUG start	CSC inhib	PABP polyA inh	Env fusion inh	others
COCCn1c(=O)[nH]c(=O)c2c(C(F)(F)F)cc(-c3cccs3)nc21	0	12	10	i	/	-8	2	-22
CC(C)C(=O)NNC(=O)c1cc2sccc2s1	-2	-3	-1	i	/	-1	7	12
O=c1c2sccc2[nH]c(=S)n1Cc1ccccc1	9	1	0	i	/	-10	2	14
CC(C)NC(=O)C1CCN(C2CCN(C(=O)c3cc4c(s3)CCCCC4)CC2)CC1	1	0	3	i	/	12	-5	-3
Cc1ccc(C2=NN(S(C)(=O)=O)C(c3cccs3)C2)cc1 (centres undefined)	-1	/	/	i	-7	-6	8	/
CCOc1ccc(CN(C(=O)c2cccs2)C2CCS(=O)(=O)C2)cc1 (centres undefined)	2	-1	3	i	5	-6	13	10

Next structures follow.
SMILES	eIF4H inh	MT1-MMP act inh	MT1-MMP act inh RFP	Rce1 inhib	Yeast UUG start	CSC inhib	PABP polyA inh	Env fusion inh	others
Nc1ccccc1-c1ccc(Cl)cc1	/	-17	-11	/	-9	/	/	0
CCOC(=O)C1CCN(C(=O)c2ccc(OC3CCN(C(=O)COC)CC3)cc2)CC1	-9	0	0	i	-9	/	-1	-3
CC(=O)c1cccc(NC(=O)Nc2ccc(C)cc2)c1	0	1	-4	i	-9	-3	-9	/
Nc1c(O)ccc2c1C(=O)c1ccccc1C2=O	?	/	/	i	/	23	-1	-15
CC1CCC(C(C)C)C2=C1C(C#N)(C#N)C(C#N)(C#N)C(c1ccccc1)N2 (centres undefined)	29	-7	3	i	-18	-9	19	/
CC(C)C(NC(=O)c1ccccc1)c1nnc(SCC(=O)Nc2nccs2)n1C (centres undefined)	-9	-2	-3	i	-13	-6	8	-23
C[C@@H]1CN([C@H](C)CO)S(=O)(=O)c2ccc(-c3ccc(C(=O)N(C)C)cc3)cc2O[C@H]1CN(C)C(=O)Cc1ccccn1	/	-1	2	/	-12&12&27	/	/	-3&15[16.7 µM]
Cn1c(=NC(=O)C2CC2)sc2cc(F)cc(F)c21	1	2	3	i	-8	-10	4	i
O=C(NCCc1ccccc1Cl)C1CCN(S(=O)(=O)c2cccs2)CC1	6	2	1	i	-6	-16	14	-29
Cc1oc(-c2ccccc2F)nc1CS(=O)(=O)CC(=O)N1CCc2ccccc21	12	1	-1	/	-13	-11	14	22
COc1ccc(C2=NOC(Cn3nc(C(=O)NCc4cccc(C(F)(F)F)c4)cc3-c3ccccc3)C2)cc1 (centres undefined)	/	8	-4	i	-4	-4	/	52

Reprinted from the entries so far (five entries):
SMILES	eIF4H inh	MT1-MMP act inh	MT1-MMP act inh RFP	Rce1 inhib	Yeast UUG start	CSC inhib	PABP polyA inh	Env fusion inh	others
C[C@@H]1CN([C@H](C)CO)S(=O)(=O)c2ccc(-c3ccc(C(=O)N(C)C)cc3)cc2O[C@H]1CN(C)C(=O)Cc1ccccn1	/	-1	2	/	-12&12&27	/	/	-3&15[16.7 µM]
Cn1c(=NC(=O)C2CC2)sc2cc(F)cc(F)c21	1	2	3	i	-8	-10	4	i
O=C(NCCc1ccccc1Cl)C1CCN(S(=O)(=O)c2cccs2)CC1	6	2	1	i	-6	-16	14	-29
Cc1oc(-c2ccccc2F)nc1CS(=O)(=O)CC(=O)N1CCc2ccccc21	12	1	-1	/	-13	-11	14	22
COc1ccc(C2=NOC(Cn3nc(C(=O)NCc4cccc(C(F)(F)F)c4)cc3-c3ccccc3)C2)cc1 (centres undefined)	/	8	-4	i	-4	-4	/	52

Not all compounds are listed (hit frequency here may not be typical).
